Assay outcomes as filed in PubChem.
LT uptake inh = blocks cellular internalization of anthrax lethal toxin | Cells, anthrax lethal toxin internalization, FRET ratio (460/530) | Potency, µM (top dose mostly 40 µM), without a hit: at the top dose activity change, negative = inhibition, hits mostly inhibitors | 0.67% of 70,000 active | AID 912; active = well fitted falling ratio curve with the 530 nm signal flat; inconclusive = other ratio curves, or a change in one channel alone; inactive = flat curves in the ratio and both channels; the % refers to the ratio; note: % is set by controls: 0 for no effect and ±100 for the full control effect; nearly all actives have a fitted effect of over 50% in size; tested in ME-180 cells; beta-lactamase reporter
Prx2 Sm inh = Schistosoma mansoni Prx2 inhibition | Potency, µM | S. mansoni Prx2 activity coupled to TGR/GSH (TGR is thioredoxin glutathione reductase), NADPH fluorescence loss, qHTS; some inactives read as strong as hits | 0.07% of 65,000 active | AID 448; active means full or partial inhibition curve with a strong effect at the top dose; inconclusive means weaker partial or single-point curve; inactive means no accepted curve; note: series up to 57 µM; many of its hits are not listed in these tables
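Activity is read as the drop in NADPH fluorescence (365/450 nm), recorded every 30 sec for 8 min after H2O2 addition. Prx2 is coupled to TGR-driven NADPH oxidation through glutathione, in phosphate buffer pH 7.4.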
Active calls of the source: *; i = inactive; ? = inconclusive; / = no result given; & = joins results of further samples. Potency is the fitted concentration of half-maximal effect. The list is partial; rates above refer to the full screens.

SMILES	LT uptake inh	Prx2 Sm inh
O=c1cnc2cnc(Nc3ccccc3)nc2n1C[C@H]1CCCO1	?	>57
Nc1cc(S(=O)(=O)O)ccc1O	-3.3%	/
CCOC(=O)c1ccc(NC(=O)c2cc3ccccc3o2)cc1	?	>57
COc1ccc(-c2noc(C3CCCN(S(=O)(=O)c4cccc(Cl)c4C)C3)n2)cc1OC (centres undefined)	?	>57
CCOc1cc(C)nc(Oc2ccc(=O)[nH]n2)n1	-2.8%	>57
CCOC(=O)c1sc(NC(=O)CSc2nnc(-c3ccco3)n2CC)c(C(=O)OCC)c1C	10µM*	>57
O=C(c1ccc2c(c1)OCCO2)N(c1ccccn1)C1CCCCC1	4.3%	>57
CCOC(=O)C1=C(C)N(C)C(=O)NC1c1cc2c(cc1Br)OCO2 (centres undefined)	-2.5%	>57
CC(=O)N1CCN(c2ccc(NC(=O)c3ccc4c(c3)OCO4)cc2)CC1	-12.4%	>57
CN(C)c1ncnc2ccc(-c3ccc4c(c3)OCO4)cc12	-15.3%	>57
CC(C)CNC(=O)C1CCN(c2ccc(S(=O)(=O)N3CCOCC3)cc2)CC1	-4.4%	>57
COc1ccc(-c2nnc(SCC(=O)Nc3ccccc3OC)o2)cc1	-5.5%	>57
CCOC(=O)/C(C#N)=C(/C)c1ccc(OC)cc1	?	>57
Cc1cc2nc(SCC(=O)Nc3nonc3C)c3c(c2cc1C)CCCC3	-16.8%	>57
CSc1ccccc1N=Cc1nc(-c2ccccc2)oc1O	-6.3%	/
COc1ccc(NC(=O)CN2CCN(CC(=O)Nc3ccccc3Cl)CC2)cc1Cl	0.0%	>57
c1ccc(-c2cnc(CSc3ncnc4sccc34)o2)cc1	-3.6%	>57
Cc1noc(C)c1S(=O)(=O)NC1CCCc2ccccc21 (centres undefined)	?	>57
Cc1cc(S(=O)(=O)NCC(C)C)ccc1OCC(=O)NCc1ccccn1	/	>57
Cc1ccc2c(c1)c(C)c(C)n2CC(O)Cn1nnc2ccccc21 (centres undefined)	-11.6%	>57
O=C(Nc1ccccc1NC(=O)c1c(F)c(F)c(F)c(F)c1F)c1c(F)c(F)c(F)c(F)c1F	?	>57
Cc1ccc(-c2cc(C(F)F)nc(NCC3CCCO3)n2)cc1 (centres undefined)	-13.8%	>57
CCN1CCN(S(=O)(=O)c2ccc(Br)s2)CC1	?	>57
NC(=O)Cn1nnc(-c2ccc(C(F)(F)F)cc2)n1	/	>57
CCOC(=O)C1C(=O)CC(C)(O)C(C(=O)OCC)C1c1ccc(OCC)cc1 (centres undefined)	-6.6%	/
SMILES	LT uptake inh	Prx2 Sm inh
Nc1ncnc2nc(-c3ccc(N4CCOCC4)nc3)cc(-c3cccc(Br)c3)c12	-7.4%	/
S=C=S	5.4%	/
Cc1ccc2c(c1)N(CC(=O)Nc1ccc3c(c1)OCCO3)C(=O)CO2	8.9%	>57
O=C(CN1CCCC1=O)N1CCOCC1	8.6%	>57
COc1ccc(C(CNC(=O)CN2C(=O)NC3(CC(C)CC(C)(C)C3)C2=O)N2CCOCC2)cc1 (centres undefined)	6.0%	>57
C=COC(C)=O	3.4%	/
O=C(CSC1=NCCS1)NCc1ccco1	-25.3%	/
O=C(c1cc2n(n1)C(C(F)(F)F)CC(c1ccc(Cl)cc1)N2)N1CCCC1 (centres undefined)	0.1%	>57
O=C(NCCC1=CCCCC1)C1CCN(S(=O)(=O)c2cccc3nsnc23)CC1	14.2%	>57
COC(=O)[C@@H](NC(=O)NC1CCCc2ccccc21)C(C)C (some centres undefined)	-8.1%	>57
COC(=O)c1c(NC(=O)CN2CCN(C(=O)c3ccco3)CC2)c2c(C)cccc2n1C	19.3%	>57
COC(=O)c1nnc(-c2ccccc2)c(-c2ccccc2)n1	-18.4%	>57
CN1CCN(c2nccc3c2ncn3C)CC1	-22.4%	>57
CC(C)CCNC(=O)CN(CCCN1CCOCC1)C(=O)Cn1nnc(-c2ccc(F)cc2)n1	13.0%	>57
CC(=NCc1ccc2c(c1)OCO2)c1c(O)n(C)c(=O)n(C)c1=O	?	>57
COc1ccc(CCNC(=O)c2c[nH]c3ccccc3c2=O)cc1OC	-9.9%	>57
O=C(NCC1CC1)[C@H]1C[C@@H]1[C@H](NP(=O)(c1ccccc1)c1ccccc1)c1ccccc1	?	>57
CC(C)C(NS(=O)(=O)c1ccc2c(c1)oc(=O)n2C)C(=O)N1CCN(c2ccccc2F)CC1 (centres undefined)	?	>57
O=C(Cn1nnc2ccccc21)NC1CCCCC1	-8.2%	>57
CCOC(=O)N1CCC(NC(=O)C2CCN(S(=O)(=O)N3CCC(C)CC3)CC2)CC1	-11.3%	>57
Oc1ccc(COCc2ccccc2)c2cccnc12	-11.4%	>57
c1csc(CNc2cc(-c3ccoc3)ncn2)c1	3.3%	>57
CCOC(=O)C1CCCCN1Cc1ccccc1C(F)(F)F (centres undefined)	-8.8%	>57
O=C(COc1cc(Cl)c(Cl)cc1Cl)NCCN1CCOCC1	1.9%	>57
COC(=O)c1[nH]c(=O)c2ccccc2c1OCc1ccccc1	6.7%	>57
SMILES	LT uptake inh	Prx2 Sm inh
NC(=O)c1ccccc1[N+](=O)[O-]	-4.7%	/
CCOCCCNC(=O)C1CCN(S(=O)(=O)N2CC(C)CC(C)C2)CC1 (centres undefined)	9.1%	>57
CCN1C(=O)/C(=C2/C=CC=CN2C)SC1=S	-12.9%	/
O=C(CSc1n[nH]c(-c2cccs2)n1)N1CCN(S(=O)(=O)c2ccccc2)CC1	?	>57
COc1cccc(Nc2ncc3ncc(=O)n(CCC#N)c3n2)c1	12.5%	i
CC1(C)CC(C(=O)Nc2nccs2)CCO1 (centres undefined)	8.6%	>57
O=C1CCCN1CC(CN1CCOCC1)Sc1nc2ccccc2c(=O)n1-c1ccccc1 (centres undefined)	-12.5%	>57
CC(=O)Nc1nn(C)c2nc3cc(C)ccc3cc12	7.0%	>57
CCc1c(C)c2ccc(OCC(=O)OC)cc2oc1=O	?	>57
CN(C)C(=O)CSc1nnc(-c2cccnc2)n1-c1ccccc1	4.9%	>57
CN1CCc2c(sc3nc(SCC(=O)N4CCOCC4)nc(N)c23)C1	0.0%	>57
CCN(CC)CCn1cnc2c([nH]c3cccc(OC)c32)c1=O	9.5%	>57
Cc1ccc(NS(=O)(=O)c2ccc(CCC(=O)N3CCOCC3)cc2)cc1	-2.0%	>57
O=C(CN1CCCN(S(=O)(=O)c2ccc(F)cc2)CC1)Nc1ccccc1Br	-15.1%	>57
O=S(=O)(c1cccc2cccnc12)n1cnc2ccccc21	17.3%	>57
Cc1cc(C)n(-c2nncc(-c3ccccc3)n2)n1	-1.8%	/
N#Cc1ccc(NC(=O)c2cc3cc4c5c(c3oc2=N)CCCN5CCC4)cc1	12.7%	>57
CC(=O)NNC(=O)N1Cc2ccccc2Oc2ccc(Cl)cc21	-22.7%&5.8%	>57&>57
CCOC(=O)c1sc(N)c(C#N)c1CSc1nc2ccc(OCC)cc2[nH]1	-27.1%	>57
Fc1ccc(N2CCN(c3nc(-c4ccco4)cc(C(F)(F)F)n3)CC2)cc1	-2.9%	>57
O=C(CSc1nnc(-c2ccccc2Br)o1)Nc1cccc2ccccc12	1.5%	>57
N#CCCN(CCC#N)C(=O)c1ccc(Cl)cc1	-2.0%	>57
COc1cc(NC(=O)CSCc2cnn(-c3ccccc3)c2-n2cccc2)cc(OC)c1	?	>57
Cc1ccc(S(=O)(=O)N2CCC(C(=O)NCCN3CCCCCC3)CC2)cc1	?	>57
Cc1cn(CC2COC(C)(C)O2)c(=O)[nH]c1=O (centres undefined)	-2.7%	>57

Three of the compounds above, comma-delimited.
canonical_smiles,LT uptake inh,Prx2 Sm inh
CCc1c(C)c2ccc(OCC(=O)OC)cc2oc1=O,?,>57
Cc1ccc(S(=O)(=O)N2CCC(C(=O)NCCN3CCCCCC3)CC2)cc1,?,>57
O=C(CN1CCCN(S(=O)(=O)c2ccc(F)cc2)CC1)Nc1ccccc1Br,-15.1%,>57

A different layout for part of the listing above.
Below each compound – LT uptake inh	Prx2 Sm inh
COc1ccc(NC(=O)CN2CCN(CC(=O)Nc3ccccc3Cl)CC2)cc1Cl
→ 0.0%	>57
c1ccc(-c2cnc(CSc3ncnc4sccc34)o2)cc1
→ -3.6%	>57
Cc1noc(C)c1S(=O)(=O)NC1CCCc2ccccc21 (centres undefined)
→ ?	>57
Cc1cc(S(=O)(=O)NCC(C)C)ccc1OCC(=O)NCc1ccccn1
→ /	>57
Cc1ccc2c(c1)c(C)c(C)n2CC(O)Cn1nnc2ccccc21 (centres undefined)
→ -11.6%	>57

The listing continues.
SMILES	LT uptake inh	Prx2 Sm inh
CCCn1c(-c2ccc(F)cc2)nc2c(NC(C)CN(C)C)nc(C)nc21 (centres undefined)	1.9%	/
O=C(Nc1cccnc1)c1cnn2cccnc12	4.2%	>57
CC(C)=C1C2CC2C2C(C(=O)O)C12 (centres undefined)	-1.9%	>57
CC(CCc1ccco1)NC(=O)Cn1ncc2c(=O)oc3ccccc3c21 (centres undefined)	-15.2%	>57
CCCN1C(=O)c2cc(C(=O)NCc3cccs3)ccc2C1O (centres undefined)	-17.5%	>57
CCOC(=O)c1cccc(NC(=O)C2CCCN(S(=O)(=O)c3c(C)n[nH]c3C)C2)c1 (centres undefined)	-2.8%	>57
COc1ccc(C2(C(=O)N3CCOCC3)CCOCC2)cc1OC	-7.3%	>57
CC(C)c1nnc(NC(=O)c2ccc(N3C(=O)CCC3=O)cc2)s1	5.6%	>57
COc1cccc(C2CC(c3ccccc3Cl)n3nnnc3N2)c1 (centres undefined)	0.2%	>57
Cn1c(NC(=O)c2cccnc2)nc2ccccc21	?	>57
Cn1cnnc1-c1cccc(NS(=O)(=O)c2ccc(N3CCCC3=O)cc2)c1	-13.1%	>57
CCOC(=O)N1CCN(C(=O)CNC(=O)Cc2ccc(Cl)cc2)CC1	/	>57
N#CCCSc1ccccc1NC(=O)c1ccc(S(=O)(=O)N2CCCC2)cc1	?	>57
CCc1nc2ccccc2n1CCC(C)C	-1.3%	>57
C=CCc1cc(C)ccc1OCC(O)CN1CCN(c2ccccc2)CC1 (centres undefined)	?	/
COC(=O)c1c(C)[nH]c(C(=O)C(Cc2ccccc2)N(C)C)c1C (centres undefined)	12.7%	>57
CCCSc1nsc(SCCC)c1C(N)=O	-10.2%	>57
Cc1ccccc1Cn1c(CN2CCN(C(=O)c3ccco3)CC2)nc2c1c(=O)n(C)c(=O)n2C	15.4%	>57
CCn1c(SCC(=O)Nc2nc(C)cs2)nnc1-c1cccnc1	5.4%	>57
Cc1ccc(-c2nnc3n2N=C(c2ccccc2Br)CS3)cc1	-5.0%	>57
COc1cc(C(=O)NCCC2=CCCCC2)cc(OC)c1OC	-3.5%	>57
CCOC(=O)NC(Nc1nnc(C)s1)(C(=O)OCC)C(F)(F)F (centres undefined)	-5.2%	>57
Cc1ccc(-c2cc(C(=O)NC3=NCCS3)c3cc(Br)ccc3n2)o1	?	>57
COc1ccc(-n2nnc3c(=O)n(CC(=O)OCc4ccccc4)cnc32)cc1	-7.5%	>57
CCOC(=O)C1C(=O)C(C(=O)OCC)C(c2cccnc2)NC1c1cccnc1 (centres undefined)	5.3%	>57

Record cards (already shown). Order of screens: LT uptake inh | Prx2 Sm inh
Cc1ccc(-c2cc(C(=O)NC3=NCCS3)c3cc(Br)ccc3n2)o1 is listed as ? | >57
CC(C)c1nnc(NC(=O)c2ccc(N3C(=O)CCC3=O)cc2)s1 is listed as 5.6% | >57
CCOC(=O)N1CCN(C(=O)CNC(=O)Cc2ccc(Cl)cc2)CC1 is listed as / | >57
CCc1nc2ccccc2n1CCC(C)C is listed as -1.3% | >57

Continued.
SMILES	LT uptake inh	Prx2 Sm inh
CN1CCN(c2ncc3ncc(=O)n(-c4ccccc4)c3n2)CC1	-2.6%	>57
COc1ccc(C(=O)NCc2ccccc2OC)cc1	2.5%	>57
COc1ccc([C@@H]2Sc3ccccc3N(CCN(C)C)C(=O)[C@@H]2OC(C)=O)cc1	?	>57
CSCC[C@H](NC(=O)Nc1cccc(C(F)(F)F)c1)C(=O)O	1.4%	>57
O=Cc1c(Cl)cccc1Cl	-0.4%	/
CCOC(=O)C1C2C=CC3(CN(Cc4cccs4)C(=O)C13)O2 (centres undefined)	1.9%	>57
CCOCCOC(=O)CCSc1n[nH]c(=O)[nH]c1=O	0.0%	>57
COC(=O)COc1ccc(S(=O)(=O)NC2CCCCCC2)cc1	?	>57
COC(=O)NCc1ccc(S(=O)(=O)N2CCOCC2)cc1	5.4%	>57
CNC(=O)CN1C(=O)C2C3C=CC(C3)C2C1=O (centres undefined)	9.3%	>57
COc1ccc(OC)c2sc(NC(=O)C3CC3)nc12	?	>57
CC1=C(/C=C/C(C)=C/C=C/C(C)=C\C=O)C(C)(C)CCC1	?	/
CN(CCOc1ccc(C[C@H](Nc2ccccc2C(=O)c2ccccc2)C(=O)O)cc1)c1ccccn1	?	>57&>57
COc1ccc(OC)c(-c2nnc(SCC(=O)N3CCOCC3)o2)c1	/	>57
S=C=Nc1cccc(C2(N3CCCCC3)CCCCC2)c1	12.6µM*	>57&>57
COc1ccc(NC(=O)C2c3cc(OC)c(OC)cc3C(=O)N(C)C2c2cccnc2)cc1OC (centres undefined)	-5.9%	>57
CCN1C(=O)C(CC(=O)NC2CCCCC2)N(CC)C1=O (centres undefined)	-6.1%	>57
Cc1nn(-c2ccccc2)c2sc(C(=O)N(CC(=O)NC3CCCC3)Cc3ccco3)cc12	?	>57
O=C(CCSc1nc(-c2ccc3c(c2)OCO3)cc(C(F)(F)F)n1)NCc1ccco1	?	>57
CCc1ccc(N2CC(C(=O)Nc3nccs3)CC2=O)cc1 (centres undefined)	-6.2%	>57
